Bioassay records deposited in PubChem by several laboratories.
Rce1 inh = blocks yeast Ras-converting enzyme; calls only; Q03530; yeast membranes, quenched prenylated peptide cleavage fluorescence; 290,000 tested, 0.27% active;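 active = fall in fluorescence gain of 50% or more versus controls, with final raw signal at or below 3038400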;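 also: plate controls were neutral control wells for no effect and wells lacking membranes for full effect; tested at 10 µM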
Target sequence (Q03530 whole entry, looked up): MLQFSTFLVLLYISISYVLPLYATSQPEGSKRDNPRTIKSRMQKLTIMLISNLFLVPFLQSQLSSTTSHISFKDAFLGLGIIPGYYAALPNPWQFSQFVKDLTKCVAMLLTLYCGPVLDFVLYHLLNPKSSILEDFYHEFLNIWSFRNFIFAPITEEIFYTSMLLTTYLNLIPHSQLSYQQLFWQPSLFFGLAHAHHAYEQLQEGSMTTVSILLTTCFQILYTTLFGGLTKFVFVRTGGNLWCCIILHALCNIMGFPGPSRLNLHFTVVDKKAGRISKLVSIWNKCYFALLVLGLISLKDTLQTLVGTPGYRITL
eIF4H FP inh = inhibitors of RNA binding by human eIF4H | AID 2012 | 290,000 tested, 0.94% active | eIF4H fluorescence polarization binding assay | inhibition, % at 35 µM;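 active = 50% or more with normal probe brightness, or confirmed in later tests; about a fifth of its hits are not listed in these tables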;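 also: calls also rest on retests at 20 µM and on dose response follow-up; 0% = protein and probe with vehicle and 100% = probe without protein; strong numbers were not always called active; many hits fall short of the cut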
CSC inhib = cancer stem cell inhibition | cancer stem cell-like cells viability, luminescence | inhibition, % at 7.5 µM | AID 2717 | 300,000 tested, 1.1% active;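 active = mean at 75% or more and at least half the replicates too; tested in HMLE shEcad cells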;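 also: 0% = median of negative and 100% = median of positive control wells; the first replicate is given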
Env fusion inh = blocks HIV Env-driven cell-cell fusion; AID 651610; 360,000 tested, 1.1% active; HeLa-JRFL Env/CEM21 cell fusion, luciferase; inhibition, % at 12.3 µM;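 active = mean replicate inhibition score of at least 50 and every replicate individually at or above 50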;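 also: 0% = plate neutral controls and 100% = maraviroc near 300 nM; one replicate is shown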
Yeast UUG start = modulators of start codon recognition fidelity in yeast; S. cerevisiae UUG-firefly luciferase reporter, luminescence/redox ratio; activity score, % at 18.7 µM; 350,000 tested, 0.13% active; AID 602363;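 active = replicate mean at a twofold rise or more, about +100% in these data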;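 also: firefly luciferase made from a UUG start codon reports start codon fidelity; reporter light over untreated wells divided by growth signal over untreated wells; some hits fall short of that in this replicate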
MT1-MMP act inh = blocks activation of human MT1-MMP; P50281; HT1080 RFP-PRO-GFP cells, GFP/RFP ratio fluorescence, overnight; percent of plate control window, DMSO zero; GFP/RFP ratio change, % at 20 µM; 360,000 tested, 0.061% active;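 active = GFP/RFP ratio change of at least 30% with cell ATP level not reduced by more than half and red fluorescence within 50% of control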; also: strong numbers were not always called active
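Material – HT1080 RFP-PRO-GFP cells · Control set – DMSO wells and RFP-L50D-GFP cells · Incubation – overnight cell settling, then overnight compound exposure, 37 °C, 5% CO2 · Compound dosing – single-point 20 µM compound, 1% DMSO · Read-out – GFP/RFP fluorescence ratio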
PABP FP inh = PABP-poly(A) binding inhibition; P11940; PABP-poly(A) RNA binding, fluorescence polarization; inhibition, % at 35 µM; 290,000 tested, 1% active; AID 2014;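 active = 50% or more with normal probe brightness, or confirmed in later tests; about a fifth of its hits are not listed in these tables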;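 also: calls also rest on retests at 20 µM and on dose response follow-up; controls were probe without protein and protein plus probe with vehicle; some compounds called inactive have numbers as strong as hits; many hits fall short of the cut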
Target sequence (P11940 whole entry, looked up): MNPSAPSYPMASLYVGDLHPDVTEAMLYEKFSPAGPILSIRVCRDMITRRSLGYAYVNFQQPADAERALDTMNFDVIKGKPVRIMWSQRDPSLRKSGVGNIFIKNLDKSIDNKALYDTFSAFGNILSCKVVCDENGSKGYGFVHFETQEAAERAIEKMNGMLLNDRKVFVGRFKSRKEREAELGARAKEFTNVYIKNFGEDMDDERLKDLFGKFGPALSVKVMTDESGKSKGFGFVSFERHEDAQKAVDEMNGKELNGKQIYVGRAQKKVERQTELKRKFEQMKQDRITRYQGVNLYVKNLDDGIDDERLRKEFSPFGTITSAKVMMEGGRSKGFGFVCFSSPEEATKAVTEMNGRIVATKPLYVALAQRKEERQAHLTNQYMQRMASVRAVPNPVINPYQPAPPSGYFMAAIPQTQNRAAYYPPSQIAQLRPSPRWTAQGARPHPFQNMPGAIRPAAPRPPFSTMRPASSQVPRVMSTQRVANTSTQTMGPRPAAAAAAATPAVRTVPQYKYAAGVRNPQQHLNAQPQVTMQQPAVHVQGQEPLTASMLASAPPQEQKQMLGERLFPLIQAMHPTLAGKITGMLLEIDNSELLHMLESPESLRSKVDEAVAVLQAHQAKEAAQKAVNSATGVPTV
eIF4H FP inh retest = further read-out of eIF4H FP inh, marked with its call; inhibition, %; compound at 20 µM; confirmation average;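 mean of two retest wells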
PABP FP inh retest = also measured in PABP FP inh; calls as there; inhibition, %; compound at 20 µM; confirmation repeats;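 mean of two retest wells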
MT1-MMP act inh RFP = also measured in MT1-MMP act inh; calls as there; RFP signal change, %; measured here: RFP expression control read;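 0 = vehicle wells; hits needed this value within 50% of zero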
* marks the source's active call; other numbers are inactive results; i = inactive; · = no result given; & = joins results of further samples.

The first 6 records (preview)
SMILES	Rce1 inh	eIF4H FP inh	CSC inhib	Env fusion inh	Yeast UUG start	MT1-MMP act inh	MT1-MMP act inh RFP	PABP FP inh	others
O=C(COc1ccc(S(=O)(=O)N2CCOCC2)cc1)Nc1ccccc1C(F)(F)F	i	0	4	-29	4	-7	2	-1
CCc1nc(SCC(=O)Nc2c(C)n(C)n(-c3ccccc3)c2=O)n[nH]1	i	-1	-10	·	2	-1	-2	2
O=C(Nc1ccnn1C1CCN(C2CCCC2)CC1)c1ccccc1	i	4	8	22	-13	1	2	7
O=C(CCNc1ccc(F)cc1)c1ccco1	i	1	12	·	-4	7	-4	0
Cc1nc(SCC(N)=O)[nH]c(=O)c1CCC(C)C	i	10	-19	·	7	4	9	13
O=C(Nc1nc2c(s1)CCCC2)c1cccs1	·	-3	25	·	-26	3	-8	-5

Results, repeating the preview:
SMILES	Rce1 inh	eIF4H FP inh	CSC inhib	Env fusion inh	Yeast UUG start	MT1-MMP act inh	MT1-MMP act inh RFP	PABP FP inh	others
O=C(COc1ccc(S(=O)(=O)N2CCOCC2)cc1)Nc1ccccc1C(F)(F)F	i	0	4	-29	4	-7	2	-1
CCc1nc(SCC(=O)Nc2c(C)n(C)n(-c3ccccc3)c2=O)n[nH]1	i	-1	-10	·	2	-1	-2	2
O=C(Nc1ccnn1C1CCN(C2CCCC2)CC1)c1ccccc1	i	4	8	22	-13	1	2	7
O=C(CCNc1ccc(F)cc1)c1ccco1	i	1	12	·	-4	7	-4	0
Cc1nc(SCC(N)=O)[nH]c(=O)c1CCC(C)C	i	10	-19	·	7	4	9	13
O=C(Nc1nc2c(s1)CCCC2)c1cccs1	·	-3	25	·	-26	3	-8	-5
Cc1cccn2c(=O)c3cc(C(=O)NC4CCCCC4)c(=N)n(CCN4CCOCC4)c3nc12	i	-1	-11	-17	·	3	0	-10
O=C(c1cc(-c2ccccn2)nc2c(Cl)cccc12)N1CCN(C(=O)C2CCCO2)CC1 (configuration not stated)	i	8	0	·	-16	-5	5	5
CCCCn1nc(C(=O)N(C)CC(=O)Nc2ccc(F)c(F)c2F)ccc1=O	·	·	-5	7	23	2	-1	·
COc1ccc(-c2noc3c2-c2nc(-c4ccccc4Cl)sc2CC3)cc1	i	·	65	-8	2	·	·	·
Cc1ccsc1C(=O)OCC(=O)NC1CCS(=O)(=O)C1 (configuration not stated)	i	-3	4	7	·	0	1	-13
CCS(=O)(=O)c1nc(S(=O)(=O)c2ccc(Cl)cc2)c(N2CCC(O)CC2)s1	i	-5	13	-1	17	-4	-1	3
CCC(C)C(NC(=O)OCc1ccccc1)C(=O)NC(Cc1ccc(O)cc1)C(=O)OC (configuration not stated)	i	-12	-4	-4	·	-2	-4	-4
Nc1nonc1-c1noc(CCCN2C(=O)c3ccccc3C2=O)n1	i	0	-2	·	-7	-1	-4	0
CC(C)(C)NC(=O)C[C@H]1C[C@H](C(=O)N2CCCCC2)[C@@]2(CCc3ccccc3)c3[nH]c4cc(-c5ccco5)ccc4c3CCN2C1=O	·	·	·	18	-7	-30	-25	·
CCN(Cc1cc2cc(C)ccc2[nH]c1=O)C(=O)c1cccc([N+](=O)[O-])c1	i	-1	-7	28	·	3	2	-4
Cc1ccc(S(=O)(=O)N(CCO)Cc2cc3ccc(C)c(C)c3[nH]c2=O)cc1	i	-12	6	29	9	3	-4	3
COc1ccc(S(=O)(=O)N2CCC(C(=O)N3CCN(C)CC3)CC2)cc1OC	i	4	6	-27	-16	1	5	2
COc1ccc2nc3oc(C(=O)N4CCN(c5cccc(Cl)c5)CC4)cc3cc2c1	i	-4	18	·	-8	·	·	-4
CN(C)c1cccc(C(=O)N/N=C/c2ccoc2)c1	i	·	-5	-7	·	5	3	·
CC(C)c1ccc(NC(=O)NC2CCN(CC(=O)Nc3cccc4ccccc34)CC2)cc1	i	-8	20	·	·	-5	-4	-8
O=C(O)C(O)C(O)c1nc2ccccc2[nH]1 (configuration not stated)	i	-1	-4	14	·	-4	3	2
COc1ccc(CCNC(=O)CCC(=O)N2CCOc3ccc(C)cc32)cc1OC	i	-2	-10	7	-4	2	2	-8
CCOC(=O)Cc1csc(NS(C)(=O)=O)n1	i	-12	2	·	-5	·	·	4
NC(=O)c1cc2cc([N+](=O)[O-])ccc2oc1=O	i	-4	-8	20	-23	3	0	-9
O=C(NCCO)C(=O)NCC1OCCCN1S(=O)(=O)c1cccs1 (configuration not stated)	i	-3	-49	0	-9	-10	3	0
CCOC(=O)c1c(NC(=O)COC(=O)c2ccc([N+](=O)[O-])cc2)sc(C(=O)N(C)C)c1C	i	·	-11	·	·	3	0	·
COc1cc(-c2nc(-c3cccnc3)no2)cc(OC)c1OC	i	-6	13	-28	-6	1	-4	-10
O=C(CCc1ccccc1)Nc1ccc(F)c([N+](=O)[O-])c1	i	9	-9	-11	·	0	-2	10
Cc1onc(-c2ccccc2Cl)c1C(=O)N1CCC(C)CC1	i	2	·	4	-18	3	6	9
Cc1ccc(NC(=O)CSC2=NCCN2)cc1	i	-7	-7	-12	·	5	6	-10
COC(=O)C1CCN(c2ccc([N+](=O)[O-])cc2[N+](=O)[O-])CC1	i	1	19	22	·	5	4	-5
COc1ccc(OC)c(/C=C/C(=O)N2CCN(S(=O)(=O)c3ccc(C)cc3C)CC2)c1	·	·	·	-3	0	0	-5	·
C[C@H]1CN([C@@H](C)CO)C(=O)c2cc(C3=CCCC3)cnc2O[C@@H]1CN(C)C(=O)c1ccncc1	·	·	·	17	1&-2&-9	5	5	·
Cc1ccc2nc(-c3ccc(NC(=O)CNC4CC4)cc3)sc2c1	i	-10	·	-192	·	15	-3	-4
CC(=O)NN1C(=O)c2ccccc2NC1c1ccc(N(C)C)cc1 (configuration not stated)	i	3	0	12	-15	1	3	-4
C=CCn1c(O)c(N=NC(=O)CNC(=O)Cc2ccccc2)c2ccccc21	i	4	7	-2	-15	-3	-4	3
COc1ccc(Oc2coc3cc(OC(=O)c4cccs4)ccc3c2=O)cc1	i	-7	3	·	-17	-3	-2	-1
O=C(COC(=O)Cn1nnc(-c2ccccc2)n1)Nc1ccccc1Br	·	·	·	8	-7	1	1	·
c1ccc(-c2ccccc2OCCCCn2ccnc2)cc1	i	3	-8	11	-4	-2	-8	2
CC(C)Oc1cccc(C(=O)Nc2nnc([C@@H]3C[C@H](O)[C@@H](CO)O3)s2)c1	·	·	·	15	0	-1	3	·
COc1ccc(-c2nc(N3CCCC3)[nH]c(=O)c2C#N)cc1	i	-2	-2	-120	-18	-2	1	-5
Cn1nc(C(F)(F)F)c(-c2ccccc2)c1NC(=O)CSCC(=O)O	i	-8	·	0	-37	-6	-6	4
CCc1ccccc1NC(=O)NNC(=O)CCc1ccccc1	i	5	2	16	-13	-3	2	-11
O=C(COc1cccnc1[N+](=O)[O-])Nc1cccc(S(=O)(=O)N2CCCCC2)c1	i	-6	1	21	-24	5	1	13
Cc1ccccc1NC(=O)CSc1nc2[nH]c(=O)cc(O)c2s1	·	·	·	-21	-3	-4	4	·
O=C(O)C1=C[C@H](c2ccccc2)C[C@H](OCCCCO)O1	i	·	-10	-5	-16	5	-5	·
Cc1ccccc1CC(=O)N1CCN(C(=O)c2ccco2)CC1	i	-9	-4	·	6	1	-1	2
O=C(COC(=O)c1ccccc1Cl)NC1CCCCCCC1	·	·	·	-12	-6	-4	-2	·
CCCn1c(SCC(=O)Nc2c(CC)cccc2CC)nnc1C(C)C	i	3	-12	·	8	-2	-2	5
CCCCc1ccc(Nc2nc(CCC)cc(=O)[nH]2)cc1	i	10	102*	·	1	-5	-12	5
COc1cc(C2=CCN(C(C)=O)CC2)ccc1OC(C)=O	i	·	-13	-5	0	0	4	·
Nc1nc(-c2cc3c(cc2Cl)OCCO3)cs1	i	-4	-8	-7	-8	-1	-3	-3
COc1ccc(N2C(=O)CN(Cc3ccc(OC)c(OC)c3)C2=S)cc1	i	4	15	12	6	2	0	-9
Cc1cccc(Nc2nnc(SCC3CCCCO3)s2)c1C (configuration not stated)	i	1.8*	-3	·	·	4	0	74	eIF4H FP inh retest=58*;PABP FP inh retest=48
Cc1cc(Nc2cccc(C(=O)O)c2)n2ncnc2n1	i	-7	3	-61	-18	-3	2	2
COC(=O)c1c(C)[nH]c(C)c1-c1ccccc1Cl	i	0	-9	·	-11	0	-1	7
CCOc1ccc(N(C(C)C(=O)Nc2ccc(OC)cc2)S(C)(=O)=O)cc1 (configuration not stated)	i	5	-5	·	7	2	0	-1
Cc1ccc2oc(C(=O)Nc3nonc3C)c(C)c2c1	i	6	·	-43	-6	2	1	-13
CCc1c(C)c2ccc(OCC(N)=O)cc2oc1=O	·	2	·	-301	-18	5	-6	6

Quoted at random: 3 compounds from above
SMILES	Rce1 inh	eIF4H FP inh	CSC inhib	Env fusion inh	Yeast UUG start	MT1-MMP act inh	MT1-MMP act inh RFP	PABP FP inh	others
Cc1ccccc1NC(=O)CSc1nc2[nH]c(=O)cc(O)c2s1	·	·	·	-21	-3	-4	4	·
Cc1cccc(Nc2nnc(SCC3CCCCO3)s2)c1C (configuration not stated)	i	1.8*	-3	·	·	4	0	74	eIF4H FP inh retest=58*;PABP FP inh retest=48
CCc1c(C)c2ccc(OCC(N)=O)cc2oc1=O	·	2	·	-301	-18	5	-6	6

5 entries from above, ordered by heavy-atom count, rising:
SMILES	Rce1 inh	eIF4H FP inh	CSC inhib	Env fusion inh	Yeast UUG start	MT1-MMP act inh	MT1-MMP act inh RFP	PABP FP inh	others
c1ccc(-c2ccccc2OCCCCn2ccnc2)cc1	i	3	-8	11	-4	-2	-8	2
Cc1ccccc1CC(=O)N1CCN(C(=O)c2ccco2)CC1	i	-9	-4	·	6	1	-1	2
Cn1nc(C(F)(F)F)c(-c2ccccc2)c1NC(=O)CSCC(=O)O	i	-8	·	0	-37	-6	-6	4
COc1ccc(-c2noc3c2-c2nc(-c4ccccc4Cl)sc2CC3)cc1	i	·	65	-8	2	·	·	·
CCCCn1nc(C(=O)N(C)CC(=O)Nc2ccc(F)c(F)c2F)ccc1=O	·	·	-5	7	23	2	-1	·

(more compounds)
SMILES	Rce1 inh	eIF4H FP inh	CSC inhib	Env fusion inh	Yeast UUG start	MT1-MMP act inh	MT1-MMP act inh RFP	PABP FP inh	others
CCc1ccc(C2C3=C(CC(C)(C)CC3=O)Nc3c2c(=O)[nH]c2nc(C)nn32)cc1 (configuration not stated)	i	-11	-18	-31	-1	1	1	-6
COc1ccc(-c2cc(C(F)(F)F)nc(NCc3cccs3)n2)cc1	i	2	39	15	·	-9	-15	-2
Cc1nc2c(cnn2-c2ccccc2)c(=O)[nH]1	i	-5	-6	-10	·	2	1	-4
Cc1cc(C)n2nc(SCC(=O)Nc3ccccc3C)nc2n1	i	10	·	3	-21	·	·	-3

No enrichment for hits (roughly 2.9% active in at least one column).
